CFTR F508del = total CFTR protein upregulators, primary screen, cell-based, HeLa F508del-CFTR, immunofluorescence, viability (AID 1224863) | HeLa F508del-CFTR, immunofluorescence total CFTR, 24 h; by the record results were divided by relative cell number; some inactives read as strong as hits | 0.1% of 10,000 active | Cystic fibrosis transmembrane conductance regulator (Homo sapiens) | calls, or highest fold increase where a dose series was run; in the data nearly all actives have a first-pass fold increase above 1.5; a few of its hits are not listed in these tables;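 also: total CFTR protein by anti-CFTR immunofluorescence in fixed cells; first pass at 25 µM or 10 µg/mL by library and series up to twice that; 1 = untreated cells; first-pass hits also needed half or more of the cells alive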
CFTR F508del fold 25 µM = also measured in CFTR F508del; calls as there; fold increase; measured here: primary screen single dose 25 uM; library dosed in µM
CFTR F508del fold 10 ug/mL = second read-out of CFTR F508del, no call of its own (marks repeat the call); fold increase; measured here: primary screen 10 ug/mL
CFTR F508del viability 25 µM = also measured in CFTR F508del; calls as there; viability, %; measured here: primary viability 25 uM; library dosed in µM;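 0% = killed and 100% = untreated cells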
CFTR F508del viability 10 ug/mL = second read-out of CFTR F508del, no call of its own (marks repeat the call); viability, %; measured here: primary viability 10 ug/mL;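 0% = killed and 100% = untreated cells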
Numbers without * were called inactive; i = inactive; / = not tested or not shown; & = joins results of further samples.

SMILES | CFTR F508del | CFTR F508del fold 10 ug/mL | CFTR F508del viability 10 ug/mL | others
COc1ccc(C2CCCN2S(=O)(=O)N2CCCCC2)c(OC)c1 (centres undefined) | i | 1 | 89
CNC(=O)C1Cc2ccccc2CN1Cn1ncc(Cl)c(Cl)c1=O (centres undefined) | i | 0.93 | 76
O=C(NCC1CC1)C1CCCNC1 (centres undefined) | i | 1.1 | 100
NCCNCCNCCN | i | / | / | CFTR F508del fold 25 µM=1.1;CFTR F508del viability 25 µM=106
CCOC(=O)c1sc(NC(=O)CN2C(=O)NC3(CCC(C)CC3)C2=O)c(C(=O)OCC)c1C (centres undefined) | i | 1 | 89
CS(=O)(=O)Nc1cccc2c1CCCN2 | i | 1.1 | 93
CNS(=O)(=O)Cc1cc(C)on1 | i | 1.1 | 101
CCCN1C[C@H](CSC)C[C@@H]2c3cccc4[nH]cc(c34)C[C@H]21 | i | / | / | CFTR F508del fold 25 µM=1.1&1.1;CFTR F508del viability 25 µM=97&89
O=C1c2ccccc2S(=O)(=O)N1CCOc1ccccc1Cl | i | 0.91 | 80
Cc1ccc(CN(C)C(=O)CNC(=O)c2ccoc2)o1 | i | 0.98 | 99
S=c1n(CN2CCN(c3ncccn3)CC2)nc(CSc2nc3ccccc3s2)n1-c1ccccc1 | i | 1.1 | 91
Cc1sc2nc(CSc3nnnn3C3CCCC3)nc(N)c2c1C | i | 1 | 92
O=c1c2ccccc2nnn1CN(Cc1ccc2c(c1)OCCO2)CC(F)(F)F | i | 0.9 | 96
O=c1oc2ccccc2n1CCOc1cccc(Br)c1 | i | 1.1 | 82
CCCNC(=O)N1CCN(S(=O)(=O)c2ccc(Cl)s2)CC1 | i | 0.85 | 97
O=C(OCC(=O)C12CC3CC(CC(C3)C1)C2)c1sc2cc(Cl)ccc2c1Cl | i | 1.1 | 89
CCC1(C)CC(=O)NC1=O (centres undefined) | i | / | / | CFTR F508del fold 25 µM=1.1;CFTR F508del viability 25 µM=103
CC(c1cccc([N+](=O)[O-])c1)N(C)S(=O)(=O)C1=Cc2ccccc2CC1 (centres undefined) | i | 0.92 | 95
Cc1nn(C)c(C)c1NC(=O)CN1CCC(C(=O)N2CC(C)OC(C)C2)CC1 (centres undefined) | i | 1.2 | 87
COc1ccc(-c2noc(CN3CCN(c4cc(C)nc5ncnn45)CC3)n2)cc1 | i | 0.96 | 81
O=S(=O)(CCSc1nncs1)c1ccccc1 | i | 1.2 | 93
CC(C)Nc1cccnc1N1CCN(C(=O)c2cc3cc(NS(C)(=O)=O)ccc3[nH]2)CC1 | i | / | / | CFTR F508del fold 25 µM=0.98;CFTR F508del viability 25 µM=89
C=CCn1cnn(CN(Cc2ccc(C(=O)NC3CC3)cc2)C2CC2)c1=S | i | 0.95 | 84
N#Cc1ncn(Cc2cccc3cccnc23)n1 | i | 1 | 93
NC(=O)NC(=O)CSc1nnc(CN2CCCCC2)o1 | i | 1.1 | 105
CC1(C)CC(NC(=O)CCCc2cccs2)CC(C)(C)N1 | i | 1 | 96
CC(C)c1ccc(C2C(C#N)=C(N)OC3=C2C(=O)CC(C)(C)C3)cc1 (centres undefined) | i | 1.1 | 98
CCCC1NC(=O)N(Cc2cn3cc(Cl)ccc3n2)C1=O (centres undefined) | i | 1 | 91
CN1CCC[C@@H]1CCO[C@](C)(c1ccccc1)c1ccc(Cl)cc1 | i | / | / | CFTR F508del fold 25 µM=0.88&1.1&1.1;CFTR F508del viability 25 µM=85&89&82
Cc1cc(C(=O)Cn2nnn(-c3cccs3)c2=O)c(C)n1CCc1cccs1 | i | 0.85 | 91
Cc1cc2oc(=O)cc(CSCc3cccc(F)c3)c2cc1C(C)C | i | 0.93 | 80
Cc1nnc(SCc2cc(=O)n3c4c(sc3n2)CCCC4)n1C1CC1 | i | 1 | 89
Cc1noc(C)c1C(=O)OCc1nc(N)nc(N(C)C)n1 | i | 0.99 | 100
CC1=NNC2(O)Nc3ccccc3CC2=N1 (centres undefined) | i | 1.1 | 95
Cc1cccc(Nc2ccncc2S(=O)(=O)NC(=O)NC(C)C)c1 | i | / | / | CFTR F508del fold 25 µM=1.1&0.92;CFTR F508del viability 25 µM=101&91
CC1=C(C(=O)c2ccc(Cl)cc2)C(c2ccc(C(F)(F)F)cc2)NC(=O)N1 (centres undefined) | i | 0.87 | 87
Cc1nn(C)c(C)c1CC(=O)Nc1nccs1 | i | 0.93 | 83
O=C(NCCC(=O)N1CCN(Cc2ccc(Cl)s2)CC1)NC12CC3CC(CC(C3)C1)C2 | i | 0.92 | 91
CC(C)CC(N)C#N (centres undefined) | i | 1.1 | 95
Fc1ccc(-c2nnn(Cc3cccc(Cl)c3)n2)cc1 | i | 0.99 | 76
COc1ccc(/C(O)=C2\C(=O)C(=O)N(CCN(C)C)C2c2cc(OC)c(OC)c(OC)c2)cc1C (centres undefined) | i | 1 | 107
O=C(COC(=O)c1ccc(I)cc1)NCC1CCCO1 (centres undefined) | i | 1 | 98
O=C1OCCN1CCOc1ccc(Cl)cc1[N+](=O)[O-] | i | 0.99 | 87
CCN(CC)CCCC(C)Nc1ccnc2cc(Cl)ccc12 (centres undefined) | i | / | / | CFTR F508del fold 25 µM=1.1&1.1;CFTR F508del viability 25 µM=99&98
O=[N+]([O-])c1ccc2c(c1)nc(SCc1nc3ccccc3s1)n2-c1cccc(C(F)(F)F)c1 | i | 0.97 | 110
O=C(c1ccccc1)c1nc(-c2ccc3c(c2)OCO3)cs1 | i | 0.83 | 76
COc1ccc2c(c1)c(CC(=O)O)c(C)n2C(=O)c1ccc(Cl)cc1 | i | / | / | CFTR F508del fold 25 µM=0.98&1&1;CFTR F508del viability 25 µM=83&99&100
C=C(Cl)CN1C(=O)NC2(CCS(=O)(=O)c3ccc(F)cc32)C1=O (centres undefined) | i | 1 | 98

15 compounds already listed, arranged by number of heavy atoms, largest number first:
SMILES | CFTR F508del | CFTR F508del fold 10 ug/mL | CFTR F508del viability 10 ug/mL | others
COc1ccc(/C(O)=C2\C(=O)C(=O)N(CCN(C)C)C2c2cc(OC)c(OC)c(OC)c2)cc1C (centres undefined) | i | 1 | 107
O=[N+]([O-])c1ccc2c(c1)nc(SCc1nc3ccccc3s1)n2-c1cccc(C(F)(F)F)c1 | i | 0.97 | 110
O=C(NCCC(=O)N1CCN(Cc2ccc(Cl)s2)CC1)NC12CC3CC(CC(C3)C1)C2 | i | 0.92 | 91
Cc1cc(C(=O)Cn2nnn(-c3cccs3)c2=O)c(C)n1CCc1cccs1 | i | 0.85 | 91
CC1=C(C(=O)c2ccc(Cl)cc2)C(c2ccc(C(F)(F)F)cc2)NC(=O)N1 (centres undefined) | i | 0.87 | 87
COc1ccc2c(c1)c(CC(=O)O)c(C)n2C(=O)c1ccc(Cl)cc1 | i | / | / | CFTR F508del fold 25 µM=0.98&1&1;CFTR F508del viability 25 µM=83&99&100
Cc1cccc(Nc2ccncc2S(=O)(=O)NC(=O)NC(C)C)c1 | i | / | / | CFTR F508del fold 25 µM=1.1&0.92;CFTR F508del viability 25 µM=101&91
C=C(Cl)CN1C(=O)NC2(CCS(=O)(=O)c3ccc(F)cc32)C1=O (centres undefined) | i | 1 | 98
CCN(CC)CCCC(C)Nc1ccnc2cc(Cl)ccc12 (centres undefined) | i | / | / | CFTR F508del fold 25 µM=1.1&1.1;CFTR F508del viability 25 µM=99&98
CCCC1NC(=O)N(Cc2cn3cc(Cl)ccc3n2)C1=O (centres undefined) | i | 1 | 91
O=C(COC(=O)c1ccc(I)cc1)NCC1CCCO1 (centres undefined) | i | 1 | 98
O=C1OCCN1CCOc1ccc(Cl)cc1[N+](=O)[O-] | i | 0.99 | 87
Cc1nn(C)c(C)c1CC(=O)Nc1nccs1 | i | 0.93 | 83
CC1=NNC2(O)Nc3ccccc3CC2=N1 (centres undefined) | i | 1.1 | 95
CC(C)CC(N)C#N (centres undefined) | i | 1.1 | 95

Additional entries follow:
SMILES | CFTR F508del | CFTR F508del fold 10 ug/mL | CFTR F508del viability 10 ug/mL | others
c1ccc(-c2cc(-c3ccc[nH]3)nc3sc4c(c23)CCCC4)cc1 | i | 1.1 | 94
O=C(CN1C(=O)c2ccccc2C1=O)N1CCNC1=O | i | 1 | 98
CS(=O)(=O)c1ccc2nnn(OCCCOc3ccccc3)c2c1 | i | 0.94 | 94
C#CCOc1ccc(CNC(C)c2ccc(Br)cc2)cc1OCC (centres undefined) | i | 0.94 | 76
O=C(C1CCCO1)N1CCN(Cn2nc3n(c2=S)CCCCC3)CC1 (centres undefined) | i | 1.1 | 115
CCCCNc1ccc(N2CCOCC2)cc1 | i | 0.99 | 90
Clc1ccc(-n2c(SCc3nc4ccccc4o3)nnc2-c2ccccc2)cc1 | i | 1.1 | 108
Cc1nn(CC(=O)N2CCN(CC(F)(F)F)CC2)c(C)c1[N+](=O)[O-] | i | 1 | 95
CC(OC(=O)C1=Cc2ccccc2OC1)C(=O)C12CC3CC(CC(C3)C1)C2 (centres undefined) | i | 1.1 | 91
S=c1n(-c2ccccc2)cnn1CN1CCCC1c1ccccc1 (centres undefined) | i | 1 | 107
NS(=O)(=O)Cc1noc2ccccc12 | i | / | / | CFTR F508del fold 25 µM=1&1;CFTR F508del viability 25 µM=82&104
CCONC(=O)COc1c(I)cc(Cl)c2cccnc12 | i | 0.96 | 103
COc1ccc(OC)c(C2CCCN2Cn2[nH]c(-c3cccs3)nc2=S)c1 (centres undefined) | i | 1.1 | 118
CN(Cc1ccsc1)S(=O)(=O)c1ccc2c(c1)OCCO2 | i | 0.88 | 87
COc1ccc(-n2cnnc2SCCOc2c(Cl)cccc2Cl)cc1 | i | 1 | 84
O=[N+]([O-])c1ccc(NCC(C2CCOC2)N2CCCC2)c(Cl)c1 (centres undefined) | i | 1.1 | 108
CC(C)CCNC(=O)Cc1csc(N2CCCC2=O)n1 | i | 0.93 | 94
Cc1cc(C(=O)O)nc(=O)[nH]1 | i | 1.1 | 102
O=C(NCCCCN1CCOCC1)c1nc(N2CCCC2)ncc1Cl | i | 1.1 | 92
CCN(Cc1cccs1)CN1C(=O)NC2(CCCCC2C)C1=O (centres undefined) | i | 1 | 90
O=C(O)C1CC(=O)N(c2ccc(S(=O)(=O)Nc3ccc(F)c(F)c3F)cc2)C1 (centres undefined) | i | 0.9 | 94
COc1ccc(N)cc1NC(=O)OC(C)(C)C | i | 1.1 | 101
CONC(=O)C(CC(C)C)N1C(=O)C2CC=CCC2C1=O (centres undefined) | i | 0.94 | 101
O=C(NC1=NCCS1)C1CCCN1C(=O)c1ccc(Cl)c(Cl)c1 (centres undefined) | i | 0.92 | 99
CON(C)S(=O)(=O)c1ccc(NS(=O)(=O)c2cc(S(C)(=O)=O)ccc2Cl)cc1 | i | 0.99 | 101
CC(C)Nc1nnc(SCCC#N)s1 | i | 1 | 93
CON(C)S(=O)(=O)c1ccc(NS(=O)(=O)c2ccc(F)cc2)cc1 | i | 0.94 | 106
Cc1oc(C(=O)N2CCN(S(=O)(=O)N(C)C)CC2)cc1S(=O)(=O)N1CCCC1 | i | 1.2 | 108
COc1ccc(C2CCCN2Cn2nc(-c3ccco3)n(C)c2=S)cc1 (centres undefined) | i | 1 | 96
CC(C)Cc1nc(Cn2nnc(-c3ccc(C(C)C)cc3)n2)no1 | i | 0.93 | 84
N#CCSc1n[nH]c(-c2ccc(Br)cc2)n1 | i | 0.95 | 92
Cc1cc(-c2ccc(N=Nc3ccc4c(S(=O)(=O)O)cc(S(=O)(=O)O)c(N)c4c3O)c(C)c2)ccc1N=Nc1ccc2c(S(=O)(=O)O)cc(S(=O)(=O)O)c(N)c2c1O | i | / | / | CFTR F508del fold 25 µM=1.1;CFTR F508del viability 25 µM=69
CC(C)Sc1ncc(-c2ccccc2)[nH]1 | i | 0.92 | 87
O=C(Nc1cc(Cl)c(Cl)cc1Cl)C1CC(=O)N(C2CCCC2)C1 (centres undefined) | i | 0.9 | 100
Cn1ncc2c(N3CCN(S(=O)(=O)c4ccc5c(c4)OCCCO5)CC3)ncnc21 | i | 0.92 | 81
CCONC(=O)c1oc2ccc(Br)cc2c1C | i | 0.89 | 98

Looked up by structure from the list above (two):
SMILES | CFTR F508del | CFTR F508del fold 10 ug/mL | CFTR F508del viability 10 ug/mL | others
O=c1c2ccccc2nnn1CN(Cc1ccc2c(c1)OCCO2)CC(F)(F)F | i | 0.9 | 96
O=C(NCCC(=O)N1CCN(Cc2ccc(Cl)s2)CC1)NC12CC3CC(CC(C3)C1)C2 | i | 0.92 | 91

(list continues)
SMILES | CFTR F508del | CFTR F508del fold 10 ug/mL | CFTR F508del viability 10 ug/mL | others
O=C(c1ccsc1)N1CCCC1 | i | 0.98 | 99
O=C(O)c1cc2c(C(=O)O)cc(-c3ccc4c(c3)OCO4)nc2o1 | i | 1 | 90
C[N+](C)(C)CC(O)CC(=O)O (centres undefined) | i | / | / | CFTR F508del fold 25 µM=1.2;CFTR F508del viability 25 µM=88
Cc1ccc(S(=O)(=O)N2CC(C)OC(C)C2)s1 (centres undefined) | i | 0.87 | 91
Cc1cc(C(=O)NC2CCS(=O)(=O)C2)c(C)n1Cc1cccs1 (centres undefined) | i | 1 | 86
O=C1OCCN1Cc1ccc(Nc2ccc(C(F)(F)F)cc2[N+](=O)[O-])cc1 | i | 0.89 | 84
CCC(C)(CNC(=O)C(NC(C)=O)C(C)C)N1CCOCC1 (centres undefined) | i | 1 | 94
CCn1c(Sc2ccc3nnnn3n2)nnc1-c1ccoc1C | i | 0.85 | 80
O=C(Nc1ccc(OC2CCCC2)cc1)NC1CCN2CCCCC12 (centres undefined) | i | 1.1 | 104
CC(=O)c1c[nH]c(C(=O)OCC(=O)c2cccs2)c1 | i | 1.1 | 113
COCC(C)NC(=O)CCC(=O)c1cc(C)sc1C (centres undefined) | i | 1.1 | 112

This is a subset (hit frequency here may not be typical).
